Assay outcomes as filed in PubChem.
Ecoli rRNA inh: inhibits bacterial ribosomal RNA function over humanized ribosomes; E. coli WT GFP vs humanized-ribosome RFP mutants, fluorescence, 24 h; stronger effect = lower value; DMSO median 0, no signal -100; 1.6% of 350,000 active; GFP signal change (wild-type ribosome), % (no concentration beside the values);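 active = significant combined selectivity score with lowered wild-type GFP, culture density cut under 30%, mutant RFP and density less affected; inactive = any of these conditions unmet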; note: one replicate is shown; some compounds called inactive have numbers as strong as hits
AF4-AF9 inh: MLL-AF4/AF9 protein interaction inhibition. P42568. AlphaScreen, biotin-AF4 peptide binding to FLAG-AF9. inhibition, % at 10 µM. 0.47% of 350,000 active;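 active = every replicate reaching a set inhibition limit, whatever the replicate mean, cut at about 25% in these data; inconclusive = mean inhibition reaches that limit but some replicates miss it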;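 note: 0% = plate neutral control median and 100% = total signal loss; the record names both 10 and 1 µM as test concentration; the first replicate is given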
Target sequence (P42568 whole entry, looked up): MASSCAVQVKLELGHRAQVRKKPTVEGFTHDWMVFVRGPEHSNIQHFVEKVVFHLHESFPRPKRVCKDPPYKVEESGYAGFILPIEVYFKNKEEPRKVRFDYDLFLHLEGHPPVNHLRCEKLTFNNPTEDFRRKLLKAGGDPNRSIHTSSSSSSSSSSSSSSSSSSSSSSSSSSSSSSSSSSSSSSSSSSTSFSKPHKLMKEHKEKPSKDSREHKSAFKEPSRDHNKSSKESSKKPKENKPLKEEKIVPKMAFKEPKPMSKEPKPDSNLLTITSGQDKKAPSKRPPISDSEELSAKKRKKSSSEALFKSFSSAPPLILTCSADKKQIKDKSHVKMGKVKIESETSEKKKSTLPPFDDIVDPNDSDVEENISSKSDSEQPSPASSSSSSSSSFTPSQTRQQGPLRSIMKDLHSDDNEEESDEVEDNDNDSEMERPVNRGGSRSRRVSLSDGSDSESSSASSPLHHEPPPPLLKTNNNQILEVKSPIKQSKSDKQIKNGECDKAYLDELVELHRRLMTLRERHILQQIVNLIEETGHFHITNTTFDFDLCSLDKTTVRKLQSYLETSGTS
HNF4A DNA FP: change in binding of human HNF4 alpha to DNA; P41235; HNF4a-FITC DNA binding, fluorescence polarization, 1 h; activity change, % at 10 µM; 0.3% of 360,000 active; AID 1224865; in the data active = activity change above about 30%, passing the limit was not always enough;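 note: controls were the assay level and a saturating level of protein; the project sought stronger binding though the title names inhibitors; some compounds called inactive have numbers as strong as hits; positive values seem to mean higher polarization but the record does not say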
Target sequence (P41235 whole entry, looked up): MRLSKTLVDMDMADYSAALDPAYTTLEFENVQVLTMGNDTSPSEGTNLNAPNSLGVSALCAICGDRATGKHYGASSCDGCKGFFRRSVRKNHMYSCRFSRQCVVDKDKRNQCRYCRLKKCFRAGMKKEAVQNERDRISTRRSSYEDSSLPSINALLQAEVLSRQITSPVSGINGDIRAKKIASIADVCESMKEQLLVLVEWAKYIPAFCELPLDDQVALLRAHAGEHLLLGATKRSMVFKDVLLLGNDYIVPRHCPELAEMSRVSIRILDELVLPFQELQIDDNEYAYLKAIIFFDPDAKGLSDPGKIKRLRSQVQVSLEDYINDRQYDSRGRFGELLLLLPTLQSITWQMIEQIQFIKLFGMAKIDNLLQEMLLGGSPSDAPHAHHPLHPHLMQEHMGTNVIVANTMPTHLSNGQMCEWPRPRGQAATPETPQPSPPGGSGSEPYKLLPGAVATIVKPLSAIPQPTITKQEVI
FGF22 binding: shifts melting point of recombinant human FGF22 | Q9HCT0 | recombinant FGF22 thermal shift, SYPRO orange fluorescence; percent of sucrose octasulfate shift, DMSO zero | calls only at 9.99 µM | 1.5% of 340,000 active | AID 651658;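 active = melting point raised past a set limit in the mean and every replicate; inconclusive = no clear call; three in four hits are not shown here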
Ecoli growth: inhibitors of Escherichia coli growth | OD600, 23 h; stronger effect = lower value | OD600 absorbance (concentration not given with the values) | 0.21% of 330,000 active | AID 1053175;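 active = OD600 absorbance below the run mean of sample wells minus 3.6 SD, in any replicate, cut at about 0.56 in these data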;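 note: stock transfer was 300 nL into about 60 µL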
ALR H2O2 inh: inhibitors of human sulfhydryl oxidase ALR. 3.8% of 290,000 active. purified ALR, DTT oxidation, H2O2 HRP-luminol luminescence. AID 485317. P55789. inhibition, % (concentration not given with the values);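 active = mean and each replicate at 75% or more; inconclusive = only one of the two met; inactive = neither met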;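 note: stock transfer was 7.5 nL into about 7.5 µL; 0% = neutral wells and 100% = wells with inactivated enzyme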
Vif A3G: HIV-1 Vif–A3G interaction blockers – biochemical, TR-FRET, GST-Vif 1-94, biotin-A3G peptide, dose response retest, primary screen (AID 1117319). 0.57% of 260,000 active. TR-FRET GST-Vif / biotin-A3G peptide binding; higher % means a stronger effect; test concentration not given here; strong numbers were not always called active. inhibition, %, or IC50 in µM where a hit was titrated;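 active = above the screen mean plus three standard deviations and confirmed in dose response; inconclusive = results disagree or hit not tested in dose response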;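 note: Vif residues 1-94 fused to GST binding biotinylated APOBEC3G peptide 110-148; 0% = full assay without inhibitor and 100% = GST in place of GST-Vif; retest series ran down from 100 µM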
Ecoli rRNA inh OD600: further read-out of Ecoli rRNA inh, marked with its call; OD600 change, %; measured here: OD600 growth;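 optical density of the mix in the first replicate; 0 = DMSO median and -100 = no signal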
Ecoli rRNA inh RFP: also measured in Ecoli rRNA inh; calls as there; RFP signal change, %; measured here: RFP humanized mutant strains;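 first replicate; 0 = DMSO median and -100 = no signal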
An asterisk follows results filed as active; i = inactive; ? = inconclusive; / = no result given; & = joins results of further samples. Only part of the results is shown (hit frequency here may not be typical).

cpd	SMILES	Ecoli rRNA inh	Ecoli rRNA inh OD600	Ecoli rRNA inh RFP	AF4-AF9 inh	HNF4A DNA FP	FGF22 binding	Ecoli growth	ALR H2O2 inh	Vif A3G
1	CC(/C=C1\SC(=O)N(CCCC(=O)O)C1=O)=C\c1ccccc1	/	/	/	2.4	-1.3	/	0.72	97*	19%
2	COc1cc2c3nnc(-c4ccc(F)cc4)c-3cn(Cc3ccc(F)cc3)c2cc1OC	15	11	-1.2	-1.3	5.7	i	0.78	-1	-15%&-27%
3	COc1cc(C(=O)OCC(=O)NC(=O)c2cccn2C)ccc1OC(F)F	8	9	-6.7	0.5	2.2	i	0.71	-12	-9%
4	O=C(CSc1nc(-c2ccco2)cc(C(F)(F)F)n1)N1CCc2ccccc2C1	/	/	/	/	2.0	/	0.71	-1	23µM*
5	Cc1cccc(NC(=O)CC2CCC2)c1	/	/	/	/	2.6	/	0.64	2	11%
6	Cc1onc(-c2c(F)cccc2Cl)c1C(=O)NCc1cccs1	/	/	/	/	4.9	/	0.65	/	-3%
7	O=C(NCc1cccnc1)C12CC3CC(CC(Cl)(C3)C1)C2	8	9	0.7	3.3	0.7	i	0.68	-7	/
8	CCOC(=O)CC(NC(=O)Cn1nnc(-c2ccccc2)n1)c1ccc(OC)cc1 (centres undefined)	12	6	2.7	-0.9	4.9	i	0.7	1	9%
9	COc1ccccc1C(=O)O/N=C(/C)c1ccc(N2C(=O)C3CCCCC3C2=O)cc1 (centres undefined)	-25	-36	-8.1	/	2.2	/	/	-2	5%
10	O=C(OC1CCOC1=O)c1ccc(N2CCCC2)c([N+](=O)[O-])c1 (centres undefined)	3	2	-7.8	-2.5	-1.5	i	0.71	-9	23%
11	CCCCCOc1ccc(C(C)(O)C(CN2CCOCC2)c2ccccc2)cc1 (centres undefined)	-61	-75	-20	-1.0	3.7	i	0.63	/	4%
12	CCOC(=O)Cc1csc(NC(=O)Cc2ccc([N+](=O)[O-])cc2)n1	0	3	3.7	9.7	-0.8	i	0.65	98*	3%
13	O=c1oc2ccccc2cc1-c1csc(Nc2nc3c(F)cccc3s2)n1	/	/	/	/	7.1	/	/	0	6%
14	O=S(=O)(NC1CCCCC1NS(=O)(=O)c1ccc(F)cc1)c1ccc(F)cc1 (centres undefined)	/	/	/	/	-1.3	/	0.66	-1	31%&2%
15	Cc1cc(N2CC(C(=O)NCc3cccnc3)CC2=O)ccc1C(C)C (centres undefined)	-3	0	-7.8	-7.0	4.5	i	0.71	-3	/
16	O=C1c2ccccc2NC(c2cn[nH]c2-c2ccc(Cl)cc2)N1O (centres undefined)	/	/	/	/	-3.7	/	/	-8	-48%
17	Cc1nc(N)sc1-c1csc(Nc2cc(N(C)C)ccc2Cl)n1	5	9	2.2	2.9	9.3	i	/	/	-3%
18	Cc1ccccc1CSc1nnc(-c2ccncc2)n1C	13	16	-1.8	1.6	-2.9	i	0.68	-9	-2%
19	CCN(C[C@@H]1[C@@H](c2ccccc2)[C@@H](CO)N1C(C)=O)C(=O)NC1CCCC1	0	2	-0.4	-1.3	/	i	/	/	/
20	CC(=O)c1ccc(N2C(=O)[C@@H]3C(C(=O)CCN4C(=O)c5ccccc5C4=O)=NN[C@@H]3C2=O)cc1	12	5	0.0	2.5	0.9	i	0.7	1	13%
21	CC(CC(=O)O)CC(=O)Nc1nncs1 (centres undefined)	15	0	3.8	-10	1.4	i	0.71	3	/
22	CCNC(=O)[C@@H]1[C@@H](CO)[C@@H]2Cn3c(ccc(C4=CCCCC4)c3=O)[C@@H]2N1C(=O)c1cnccn1	1	-11	0.7	4.7	/	i	/	/	/
23	COc1ccc(OC)c(N(C(=O)c2snc(C(N)=O)c2N)C(C(=O)NCC2CCCO2)c2ccc3ncccc3c2)c1 (centres undefined)	4	-6	-7.9	1.6	0.8	i	0.65	9	/
24	COCCN1C(=O)c2oc3cc(C)c(C)cc3c(=O)c2C1c1cccc(O)c1 (centres undefined)	/	/	/	/	0.5	/	0.7	-7	-1%
25	CCCCC(=O)NC(c1ccc(N(CC)CC)cc1)c1ccc2cccnc2c1O (centres undefined)	/	/	/	20	-5.8	i	/	7	/
26	COc1cccc(NC(=O)C[C@H]2CC[C@@H]3[C@@H](COc4ccc(NC(=O)C5CCCCC5)cc4C(=O)N3C)O2)c1	-6	-6	2.8	0.7	/	i	/	/	/
27	COc1ccc(CN(C)C[C@@H]2OCCCC[C@@H](C)Oc3ccc(NC(=O)NC4CCCCC4)cc3C(=O)N([C@@H](C)CO)C[C@@H]2C)cc1	4	4	2.6	5.0	/	i	/	/	/
28	Cc1cccc(NS(=O)(=O)c2ccc(S(=O)(=O)N3CCCC3)cc2)c1	-6	-14	1.5	-0.5	3.1	i	/	/	-9%
29	Cc1ccccc1OCC(=O)Nc1nnc(-c2ccco2)s1	10	6	0.4	-5.6	-2.4	i	0.7	-1	-13%
30	CS(=O)(=O)Nc1ccc2c(c1)[C@@H]1C[C@@H](CC(=O)NCc3cc(F)ccc3F)O[C@H](CO)[C@@H]1O2	0	-5	-0.5	0.6	/	i	/	/	/
31	Cc1cc(C)cc(N(CC(=O)NC(C)(C)C)C(=O)CCC(=O)Nc2ccccn2)c1	-4	-1	0.9	-7.6	7.6	i	0.68	-11	/
32	CC(C)N(CCCNC(=O)c1ccc(CS(=O)(=O)c2c(Cl)cccc2Cl)o1)Cc1ccccc1	6	6	4.3	0.6	-2.5	i	0.69	-21	/
33	O=C(NC1CCCCC1)C(=S)N1CCCC1	2	5	0.8	1.5	0.6	i	0.7	/	?
34	COc1cc(C)c(S(=O)(=O)N2CCOCC2)cc1C	-8	-7	-1.8	6.5	-2.4	i	0.67	/	1%
35	Cn1c(SCC(=O)Nc2ccc(N3CCOCC3)cc2)nnc1-c1ccccc1	-4	3	1.2	1.4	-3.0	i	0.66	8	19%
36	C[C@H](CO)N1C[C@H](C)[C@H](CN(C)CC2CCCCC2)Oc2ccc(NC(=O)Cc3cn(C)c4ccccc34)cc2C1=O	0	-8	3.6	14	/	i	/	/	/
37	CCC(=O)N1CCN=C1SCc1cc(C)ccc1C	6	6	-1.4	1.5	1.1	i	0.7	?	-5%
38	CC(=O)Nc1ccc(S(=O)(=O)NN=Cc2ccc(Cl)c(Cl)c2)cc1	-15	-28	-3.4	-1.2	3.7	i	0.65	/	-6%
39	CCOC(=O)c1cnc2c(c(C)nn2C)c1Oc1ccc(OC)cc1	-14*	6.9*	2.2*	-14	-0.5	i	0.67	2	10%
40	COc1ccc(C)cc1NC(=O)C1CCCN(S(=O)(=O)c2cccc3nonc23)C1 (centres undefined)	4	1	9.8	-0.8	4.4	i	0.73	/	/
41	Cc1ccc(NC(=O)c2oc3ccc(S(=O)(=O)N4CCC5(CC4)OCCO5)cc3c2C)cc1C	1	9	-8.8	-4.4	0.8	i	0.68	-2	-1%
42	C[C@@H](NC(=O)C[C@@H]1C[C@H]2c3cc(NC(=O)C4CCOCC4)ccc3O[C@H]2[C@H](CO)O1)c1ccccc1	2	3	-1.4	-0.5	/	i	/	/	/
43	C[C@H](CO)N1C[C@H](C)[C@@H](CN(C)C(=O)c2ccccc2F)Oc2ncc(-c3ccccc3)cc2C1=O	-4	-5	-3.9	-1.1	/	i	/	/	/
44	CC(=O)c1cccc(NC(=O)N2CCCC2C(=O)NCc2ccc3c(c2)OCO3)c1 (centres undefined)	-1	-14	-16	-0.9	1.0	i	0.68	20	-11%
45	CCCNC(=O)N1C[C@@H](O)COC[C@@H]2O[C@H](CC(=O)N3CCC(Cc4ccccc4)CC3)CC[C@H]21	-3	-2	-2.1	-1.8	/	i	/	/	/
46	O=C(NCc1ccccn1)C(C(=O)c1cccc([N+](=O)[O-])c1)n1cc(Cl)ccc1=O (centres undefined)	15	13	0.1	-0.8	-4.5	/	0.65	-17	/
47	O=S(=O)(NCCNc1ncc(C(F)(F)F)cc1Cl)C(F)(F)F	-10	4	0.0	-2.0	-0.2	i	0.57	-2	4%
48	O=S(=O)(c1cccs1)N1CCCc2nc(-c3ccc(Br)cc3)ccc21	9	9	2.2	2.4	/	i	/	/	/

The last 2 records of the part before open the next one.
cpd	SMILES	Ecoli rRNA inh	Ecoli rRNA inh OD600	Ecoli rRNA inh RFP	AF4-AF9 inh	HNF4A DNA FP	FGF22 binding	Ecoli growth	ALR H2O2 inh	Vif A3G
47	O=S(=O)(NCCNc1ncc(C(F)(F)F)cc1Cl)C(F)(F)F	-10	4	0.0	-2.0	-0.2	i	0.57	-2	4%
48	O=S(=O)(c1cccs1)N1CCCc2nc(-c3ccc(Br)cc3)ccc21	9	9	2.2	2.4	/	i	/	/	/
49	CC(=O)Nc1ccc(OS(=O)(=O)c2ccc(Cl)cc2)cc1	-3	-14	2.1	-1.7	-2.5	i	0.68	/	5%
50	CCOC(=O)c1c(Nc2ccccc2N)cc(C)nc1C	/	/	/	/	1.7	/	0.69	15	65%
51	COc1cccc(NC(=O)COC(=O)C2C3CC4OC(=O)C2C4C3)c1 (centres undefined)	3	7	1.0	-3.2	-2.9	i	0.65	-3	/
52	Cn1cc(-c2ccccc2C(N)=O)c(=O)c2ccccc21	2	2	-4.0	0.7	3.6	i	0.7	6	?
53	CCOP(=O)(OCC)/C(C#N)=C(\O)c1ccc(OC)cc1	9	2	-0.7	-1.9	0.8	i	0.65	2	?
54	COc1ccc2c3c(n(C)c2c1)[C@@H](CO)NCC31CCN(Cc2ccncc2)CC1	1	-11	-0.6	?	/	i	/	/	/
55	O=C(Nc1sc2c(c1-c1nc3ccccc3[nH]1)CCCC2)C1CCCC1	/	/	/	/	2.8	/	0.71	8	7%
56	COc1ccccc1C(c1nnnn1CCc1ccccc1)N1CCN(c2ccccc2)CC1 (centres undefined)	/	/	/	/	0.6	/	0.76	2	1%
57	Cc1nnc(NC(=O)CSc2ccccn2)s1	/	/	/	/	2.6	/	0.68	-1	5%
58	O=S1(=O)CC(N2CCCCC2)CN1Cc1cn(Cc2cccc(C(F)(F)F)c2)nn1 (centres undefined)	19	5	5.0	-1.7	-3.7	i	/	/	/
59	CCNC(=O)c1ccc(C2SCC(=O)N2CCc2ccccc2)cc1 (centres undefined)	0	-4	-1.4	-1.4	-2.9	i	0.7	-19	-2%
60	CCC(=O)N1c2ccccc2C(N(C(=O)CC)c2ccccc2)CC1C (centres undefined)	-10	4	3.9	1.8	4.1	i	0.66	/	/
61	COc1ccc(S(=O)(=O)N[C@H]2CC[C@@H](CCn3cc(C(C)C)nn3)O[C@H]2CO)cc1	-2	10	0.4	-2.5	/	i	/	/	/
62	CCN(c1ccccc1)S(=O)(=O)c1ccc(C(=O)Nc2cccc(C)n2)cc1	-18	-26	-6.8	2.1	1.3	i	0.68	4	-4%
63	CC(C)c1ccc(/C=c2\sc3n(c2=O)C(N)=C(C#N)C(c2ccc(C(C)C)cc2)C=3C(N)=O)cc1 (centres undefined)	-3	6	-0.6	-6.5	12	i	/	/	/
64	Cn1c(CN2CCOCC2)nc2cc(NC(=O)c3ccc(F)cc3)ccc21	/	/	/	/	1.3	/	0.64	-12	>100µM*
65	CSc1cccc(NC(=O)CSc2nnc(C)s2)c1	/	/	/	/	-3.8	/	0.7	-18	-6%
